Source: PubChem (several laboratories)
BJeLR viability = MLPCN primary cell-based screen for lethality selective to Ras in HRASV12 cells | 300,000 compounds, 0.17% hits | BJeLR (HRASV12) viability, CellTiter-Glo ATP luminescence, 48 h; reference of the scale not given here | AID 1554, 2009 | inhibition, % (concentration not given with the values);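 active = replicate mean above 50%; inconclusive = above 50% but judged a plate artefact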;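 note: 50 nL library stock added to about 25 µL; numbers are from one replicate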
Mtb hypoxia rep = PubChem AID 1159583; M. tuberculosis hypoxia-regulated fluorescent reporter, fluorescence; fluorescence inhibition, % (no concentration beside the values); 300,000 compounds, 0.1% hits;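 active = 35 to 45% if threefold the growth effect, above 45% if 1.5-fold the growth effect; inactive = the rest, general growth blockers included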;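 note: wells of about 50 µL received 100 nL stock; 0% = vehicle wells and 100% = reference inhibitor wells; whole bacteria with a GFP reporter of the hypoxia response; strong numbers were not always called active; many hits fall short of the cut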
Sa ugtP lethal = growth inhibition of ugtP-null S. aureus, primary screen, RN4220 ugtP deletion, OD600. 16 h; some inactives read as strong as hits. growth inhibition, % (concentration not given with the values). 330,000 compounds, 0.54% hits. AID 1259309, 2017;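 active = z-score under -3 and OD600 up to 0.15 on both plates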;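 note: plate controls were untreated wells for no effect and antibiotic for full effect; wells of about 80 µL received 100 nL stock; the first replicate is given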
RN4220 kill = growth inhibition of S. aureus RN4220, primary screen, OD600; 330,000 compounds, 0.33% hits; 16 h; inhibition, % (no concentration beside the values); AID 1259311, 2017;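 active = z-score of -3 or lower and OD600 up to 0.18 on both plates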;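 note: plate controls were untreated cells for no effect and reference antibiotic for full effect; stock transfer was 100 nL into about 80 µL; one replicate is shown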
Bead autofluor = compound fluorescence in toxin protease inhibitor counterscreen | compound autofluorescence counterscreen, microsphere flow cytometry; stronger effect = higher value | fluorescence intensity (no concentration beside the values) | 360,000 compounds, 3.1% hits;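 active = at least 3 SD above the mean of all compounds, about 16000 in these data; inconclusive = too few beads counted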;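 note: 100 nL of 1 mM stock went into each well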
PrP UTR inh = inhibition of PrP 5' UTR reporter expression; inhibition, % (concentration not given with the values); AID 488862, 2010; 340,000 compounds, 0.35% hits; cell-based PrP 5' UTR mRNA reporter, plate reader;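 active = every replicate at 50% or more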;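 note: 0 = median of the neutral control wells; tested in H4 reporter cells; numbers are from one replicate; inactives centre near -14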
Mtb hypoxia rep growth = further read-out of Mtb hypoxia rep, marked with its call; growth inhibition, %; measured here: M. tuberculosis growth (absorbance);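 0% = vehicle and 100% = reference antibiotic; read after six days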
* hit, by the source's call; ? = inconclusive; nt = not tested or not shown; & = joins results of further samples.

SMILES | BJeLR viability | Mtb hypoxia rep | Mtb hypoxia rep growth | Sa ugtP lethal | RN4220 kill | Bead autofluor | PrP UTR inh
CC(NC(=O)c1[nH]cnc1C(=O)Nc1ccccc1)c1ccccc1 (stereo not drawn) | nt | 12&9 | 7&9 | 1&-16 | -4.2&-9.6 | nt | nt
COc1ccc2cc(CN(CCc3ccccc3)Cc3nnnn3Cc3ccco3)c(=O)[nH]c2c1 | -1 | -2 | -10 | -12 | 5.1 | 2472 | -14
CC(C)C(NS(=O)(=O)c1cccs1)C(=O)NCCN1CCN(c2ccccc2)CC1 (stereo not drawn) | 9 | nt | nt | 12 | 0.9 | 3321 | -43
COc1ccc(C2C(C(=O)N3CCOCC3)CCC(=O)N2c2cc(OC)c(OC)c(OC)c2)cc1 (stereo not drawn) | -3 | 5 | 2 | 9 | 4.0 | 8731 | -20
COc1ccc(-n2c(O)c(C=NNS(=O)(=O)c3cc(C)ccc3C)c3ccccc3c2=O)cc1OC | nt | 3 | 1 | -1 | 7.4 | nt | nt
CC1Cc2ccccc2N1C(=O)CSc1nc2ccccc2n1CC(=O)N1CCOCC1 (stereo not drawn) | 8 | 12 | -3 | 5 | 3.3 | 10284 | -19
CCCCOC(=O)c1ccc(OC(=O)N2CCOCC2)cc1 | -6 | -2 | 4 | 3 | 0.3 | nt | -16
Cc1ccc(C)c(/C=N/n2cc(-c3ccccc3)[nH]c2=S)c1 | 2 | nt | nt | nt | nt | 4040 | 5
CCOc1ccc(CN2CCN(Cc3cccn3-c3cccnc3)CC2CCO)cc1 (stereo not drawn) | -3 | 2 | -1 | 6 | 6.3 | 2825 | -11
CC(Oc1ccccc1)C(=O)OCC(=O)N1CC(=O)Nc2ccccc21 (stereo not drawn) | -9 | 1 | 10 | -6 | 0.1 | 4454 | -19
Cc1ccc(CS(=O)(=O)CC(C)(O)c2ccccc2)cc1 (stereo not drawn) | -2 | 8 | 10 | 6 | 0.2 | 3645 | -13
Cc1ccc(NC(=O)/C(=C\c2ccc3c(c2)OCO3)NC(=O)c2ccco2)cc1 | -9 | 3 | 8 | 6 | 2.6 | 6608 | -11
COc1cccc(-c2nn(C)c3sc(C(=O)NCc4ccccn4)cc23)c1 | 2 | nt | nt | 7 | 8.8 | 2327 | -14
Cc1cc(C)c(NC(=O)CN(C)CC(=O)N(C)CC(=O)Nc2c(Cl)cccc2Cl)c(C)c1 | nt | -7 | 1 | 0 | -0.4 | ? | -6
CC(C)(C)OC(=O)NCCCC[C@H](NC(=O)c1[nH]cnc1C(=O)Nc1ccc(Cl)cc1)C(=O)OC(C)(C)C | -14 | nt | nt | nt | nt | 3851 | -11
O=C1C(Cl)=C(N2CCCCC2)C(=O)N1c1ccccc1 | -19 | 5 | 7 | 5 | 4.0 | 10503 | -3
Cc1cc(C)cc(NC(=O)CSc2nnc(Cn3c(=O)sc4ccccc43)n2C)c1 | nt | nt | nt | 15 | -0.3 | 3587 | -6
COc1ccc(C(=O)N/N=C/C23CC[C@@H](O)CC2(O)CC[C@@H]2[C@@H]3CCC3(C)C(C4=CC(=O)OC4)CCC23O)cc1 (stereo partly drawn) | 2 | nt | nt | nt | nt | 4961 | -25
NP(=O)(OCCCc1ccccc1)Oc1ccc(Cl)cc1 (stereo not drawn) | -5 | 7 | 0 | 15 | 9.1 | 3967 | -19
CS(=O)(=O)N1CCc2cc(C(=O)Nc3ccccc3Cl)ccc21 | -4 | nt | nt | nt | nt | 3056 | -15
O=C(CN1C2=NCCN2c2ccccc21)c1cccs1 | 3 | -2 | -1 | 9 | 0.2 | 2147 | -1
CCc1ccc2[nH]c(=O)c(CN(Cc3ccccc3OC)Cc3nnnn3Cc3ccco3)cc2c1 | 5 | 9 | 6 | -16 | -19 | 2530 | 0
CCCCCCn1c(SCC(C)C)nc2c1c(=O)[nH]c(=O)n2C | -1 | nt | nt | -11 | 0.0 | 2303 | -17
Cc1nc(CNS(=O)(=O)c2cc([N+](=O)[O-])ccc2C)cs1 | -1 | 6 | 18 | 5 | 1.4 | 3982 | -7
CC(=O)Oc1ccc(C(=O)Nc2ccc(S(=O)(=O)NCC3CCCO3)cc2)cc1 (stereo not drawn) | -6 | -2 | 1 | 6 | 5.7 | 5762 | -5
SMILES | BJeLR viability | Mtb hypoxia rep | Mtb hypoxia rep growth | Sa ugtP lethal | RN4220 kill | Bead autofluor | PrP UTR inh
CCOC(=O)C1CCCN(C(=S)Nc2ccc(S(=O)(=O)N3CCOCC3)cc2)C1 (stereo not drawn) | nt | 12 | 11 | 9 | 1.1 | 3275 | -30
CCCCCCCC(=O)OC(CN1CCCCCC1)CN1CCCC1=O (stereo not drawn) | 0 | 18 | 9 | 9 | 3.7 | 4554 | -7
O=C(NCCc1ccccc1)C1CCCN1C(=O)Nc1ccc(Cl)cc1 (stereo not drawn) | -1 | -1 | -2 | -6 | -2.4 | 3382 | -15
O=C(c1cccs1)c1ccc(-c2cccs2)s1 | 4 | 5 | 9 | 8 | 0.5 | 3150 | -54
Cc1ccc(C(=O)NC(=C(Cl)Cl)S(=O)(=O)c2ccc(Cl)cc2)cc1 | 5 | 5 | 6 | 5 | 5.9 | 3375 | -36
CN(C)S(=O)(=O)c1ccc(Cl)c(NC(=O)CSc2nc3c(cc2C#N)C(=O)CC(C)(C)C3)c1 | -10 | 14 | -15 | 4 | 7.6 | 10460 | -29
CC(C)(Cc1ccccc1)/[N+]([O-])=C\c1ccccc1 | 5 | nt | nt | nt | nt | 4000 | -16
O=C(COC(=O)COc1ccc(Cl)cc1)NC1CCS(=O)(=O)C1 (stereo not drawn) | nt | -4 | 0 | 1 | 1.4 | ? | -10
Cn1nnnc1SCC(=O)Nc1ccc(C(=O)N2CCN(Cc3ccccc3F)CC2)cc1 | nt | 17 | 7 | 1 | 4.6 | 3839 | -5
COc1ccc(CCNC(=O)c2ccccc2OCc2c(C)noc2C)cc1 | nt | 9 | 0 | 10 | 4.4 | 3001 | -9
O=C(C[n+]1ccccc1)NN=Cc1ccc(C(=O)O)cc1 | nt | 7 | 6 | 2 | 2.2 | nt | nt
Cn1cc([N+](=O)[O-])c(C(=O)N/N=C/c2cc3c(cc2Br)OCO3)n1 | -3 | nt | nt | nt | nt | 2402 | -17
CCOC(=O)C1CCN(Cc2nc(-c3ccc(OC)c(OC)c3)no2)CC1 | -3 | nt | nt | 4 | 5.9 | 4701 | -16
Cc1n[nH]c2ccccc2c1=O | nt | 9 | 10 | 6 | 3.1 | 3478 | -15
Cc1ccccc1CNC(=O)CCCC(=O)n1nc(C)c2ccccc21 | 5 | 2 | 0 | 5 | 3.6 | 4349 | -6
CCn1ccnc1CN1CCCC(C(=O)c2cc(F)ccc2OC)C1 (stereo not drawn) | 15 | -3 | -10 | 4 | 1.5 | 4419 | -25
O=C(O)CSc1nc2sc3c(c2c(=O)n1Cc1ccccc1)CCCCC3 | -13 | 1 | 9 | 10 | 11 | 3704 | nt
O=c1oc2ccccc2cc1-c1csc(Nc2nc3c(F)cccc3s2)n1 | 8 | nt | nt | nt | nt | 2675 | -32
CCn1nc(C(=O)OCc2c(C)noc2C)c2ccccc2c1=O | -4 | 11 | -1 | 6 | 5.5 | 3410 | 8
Cc1ccc(CSc2ccc3nnc(-c4ccccn4)n3n2)cc1 | -6 | nt | nt | nt | nt | 4297 | -15
COC(=O)c1cc(=O)nc2sc(-c3cccs3)nn12 | 17 | 11 | 4 | 3 | 5.9 | 10826 | -21
O=C(CCNC(=O)c1ccco1)Nc1ccc(Cl)c(C(F)(F)F)c1 | -9 | -17 | -5 | -2 | 1.5 | 6313 | -26
Nc1nc(SCc2nc3sc4c(c3c(=O)[nH]2)CCCC4)n[nH]1 | -20 | 15 | 6 | 3 | 5.0 | 4639 | -49
Cc1ccc(NC(=O)c2ccc3c(c2)nnn3C)cc1 | 1 | 20 | 9 | 7 | 5.7 | 2223 | -54
Cc1ccc(-c2cnc(-c3ccncc3)o2)cc1 | 4 | 11 | 6 | 7 | 9.8 | 16012 | -41
SMILES | BJeLR viability | Mtb hypoxia rep | Mtb hypoxia rep growth | Sa ugtP lethal | RN4220 kill | Bead autofluor | PrP UTR inh
CC(C)(C)C(=O)OC/C(N)=N/OC(=O)c1ccc(Cl)cc1 | 4 | 7 | 1 | 11 | 3.8 | 3757 | -28
O=S(=O)(CCNCc1cccs1)c1ccc(Cl)cc1 | 5 | 4 | 4 | 1 | 0.4 | nt | 4
COc1cc(N2CN=c3sc(=Cc4ccccn4)c(=O)n3C2)cc(OC)c1OC | nt | 7 | 3 | -3 | 3.4 | nt | nt
Cc1cc2nnc(SCC(=O)N3CCCCC3)n2c(N)n1 | 0 | -2 | 1 | -5 | 1.2 | 4679 | -24
Cc1ccc2c(c1)N(C(=O)CCC(=O)N1CCC(C(N)=O)CC1)CC(C)O2 (stereo not drawn) | -5 | -11 | 2 | -6 | -2.3 | 4176 | -20
O=C(CNC(=S)N(CCCN1CCOCC1)Cc1cccs1)NC1CC1 | 1 | 5 | -4 | 4 | 6.3 | 7423 | -19
c1ccc(-n2nnnc2-c2cnc(-c3ccncc3)nc2-c2cccs2)cc1 | 0 | 3 | -3 | 2 | 3.1 | 4224 | 3
COc1ccc(/C=C(/NC(=O)c2ccccc2)C(=O)NC(Cc2c[nH]c3ccccc23)C(=O)O)cc1 (stereo not drawn) | nt | 0 | 7 | -5 | 0.0 | 5721 | -4
COc1cc2cc(C(=O)N[C@@H](Cc3ccccc3)C(=O)O)n(C)c2c(OC)c1OC | -1 | -6 | 3 | -6 | 1.6 | 3628 | -7
COc1ccc(CCN2C(=O)CSC2=NNC(=O)c2ccccc2F)cc1OC | nt | -3 | 2 | -2 | 1.6 | nt | nt
CC(=O)NC1C(Oc2ccc3c(C)cc(=O)oc3c2)OC(COC(C)=O)C(OC(C)=O)C1OC(C)=O (stereo not drawn) | 6 | 1 | 3 | 5 | 6.0 | 5107 | -11
Nc1nc(SCC(=O)Nc2ccc(Cl)c([N+](=O)[O-])c2)n[nH]1 | nt | 3 | 9 | -2 | -7.5 | 5353 | -30
COc1cccc(Oc2c(C)oc3cc(OC(=O)N(C)C)ccc3c2=O)c1 | -2 | 3 | 1 | -3 | 0.7 | 10643 | -5
COc1ccc(C(=O)NN=Cc2ccc(OC)c(COc3c(F)c(F)cc(F)c3F)c2)cc1 | nt | 6 | 10 | 6 | 2.3 | nt | nt
O=c1c(Cc2ccccc2)c(O)ccn1CCc1cnc[nH]1 | -7 | 7 | 4 | -67 | 16 | 4605 | -22
CN(C)C(CNC(=O)c1ccc2nccnc2c1)c1ccco1 (stereo not drawn) | nt | 15 | 10 | 3 | 3.9 | 3830 | -24
O=C(O)COc1c(-c2ccccc2)oc2ccccc2c1=O | nt | 0 | 15 | -3 | 1.7 | 10502 | 7
COc1cccc([C@@H]2Oc3ccc(OC)cc3C(=O)[C@H]2O)c1 | 12 | nt | nt | nt | nt | 2932 | -24
Nn1c(SCC(=O)N2CCCCC2)nnc1-c1ccncc1 | -3 | nt | nt | -1 | 1.7 | 4940 | -22
Cc1ccc(-c2csc(NN=C/C=C/c3ccccc3)n2)cc1 | nt | nt | nt | 3 | 1.6 | nt | nt
CCc1ccc(C=NC23CN4CN(CN(C4)C2)C3)s1 | 0 | 3 | 6 | 9 | 4.1 | 16887* | -7
COc1ccccc1NC(=O)C(=O)NN=Cc1cccs1 | nt | 5 | 0 | 2 | -1.2 | nt | nt
CC(C)S(=O)(=O)N1CCN(c2ccnc3cc(Cl)ccc23)CC1 | -6 | 4 | 10 | 2 | -1.4 | nt | 0
COc1ccc(/C=C/C(=O)OCC(=O)c2c(N)n(C)c(=O)n(C)c2=O)c(OC)c1 | -2 | 5 | 4 | 6 | 8.4 | 3538 | 10
Cc1cc(Cl)c(OCCOCCN2CCCCC2)c(Br)c1 | 14 | 6 | 4 | 6 | 0.6 | 1949 | -6
Cc1ccc(S(=O)(=O)N(C)c2ccc(OC(C)C(=O)N3CCCC3)cc2)cc1C (stereo not drawn) | 13 | 5 | -3 | 0 | 4.7 | ? | -21

Quoted at random: three compounds from above
SMILES | BJeLR viability | Mtb hypoxia rep | Mtb hypoxia rep growth | Sa ugtP lethal | RN4220 kill | Bead autofluor | PrP UTR inh
CCCCCCn1c(SCC(C)C)nc2c1c(=O)[nH]c(=O)n2C | -1 | nt | nt | -11 | 0.0 | 2303 | -17
Cc1ccccc1CNC(=O)CCCC(=O)n1nc(C)c2ccccc21 | 5 | 2 | 0 | 5 | 3.6 | 4349 | -6
O=C(O)COc1c(-c2ccccc2)oc2ccccc2c1=O | nt | 0 | 15 | -3 | 1.7 | 10502 | 7
